Screens deposited in PubChem BioAssay by Fisher Drug Discovery Resource Center.
NPYLR7 agonist: agonists of mosquito NPYLR7 receptor, primary screen, cell-based, Aedes aegypti, calcium fluorescence, mosquito biting behavior | HEK293T NPYLR7/Galpha15, GCaMP6s calcium fluorescence | activation, % at 10 µM | actives 0.15% (n = 270,000); in the data active = activation above about 40%;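 note: 0% = vehicle and 100% = reference agonist at the receptor; some compounds past the cut are filed as inactive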
NPYLR7 agonist max-min: recorded beside NPYLR7 agonist, whose call it bears; activation, %; measured here: Max-Min RFU normalised activation; some inactives read as strong as hits;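 span of the calcium signal over five minutes; 0% = vehicle and 100% = native peptide agonist; compound fluorescence can raise it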
Starred values were filed as active, the others as inactive.

SMILES | NPYLR7 agonist | NPYLR7 agonist max-min
CC1CCN(C(=S)SCC(=O)Nc2ccc(Br)cn2)CC1 | 15 | 7
O=C(Nc1cccc(Cl)c1)N1CCCC(OCc2cccc(F)c2)C1 (stereo not given) | -7 | -6
COc1ccc(CN(CCc2c[nH]c3ccccc23)Cc2nc(C(=O)NCc3ccc(F)cc3)co2)c(OC)c1 | 17 | 15
COc1ccc(-n2c(CCCN3CCOCC3)n[nH]c2=O)cc1 | -5 | -7
Cc1c(-n2cccc2)cccc1[N+](=O)[O-] | -7 | -10
O=C(O)C12CC3CC(CC(C3)C1)C2 | -2 | -4
C=CCOc1ccccc1/C=N\NC(=O)C(C)C | -2 | -1
COCc1nc(NCCc2csc(C(C)C)n2)c2cnn(C)c2n1 | 9 | 9
CC(C)c1c(C(=O)O)c(C2CC2)nn1-c1ccc(Cl)c(Cl)c1 | 9 | 19
COC(=O)c1c2c(n3ccccc13)C(=O)c1ccccc1C2=O | -5 | -6
CC1(Cc2ccc(C(F)(F)F)o2)C(=O)Nc2cccc(Cl)c21 (stereo not given) | 2 | 1
COC(=O)c1c(NC(=O)C2CCCO2)sc2c1CCC2 (stereo not given) | -2 | -4
CSc1nnc(SCc2csc(Cc3ccc(Cl)c(Cl)c3)n2)s1 | 2 | 0
COc1cccc(CCn2ccnc2-c2ccco2)c1OC | 1 | -2
COc1c(C)cc(S(=O)(=O)NCCn2nc(-c3ccc(Cl)cc3)ccc2=O)c(C)c1C | 0 | -1
Cc1ccc(CN(C)C(=O)CCNS(=O)(=O)c2cccnc2)o1 | 7 | 7
Cn1ccnc1C(=O)C1CCCN(C(=O)CC2(c3cccc(F)c3)CC(=O)N(C3CCCC3)C2=O)C1 (stereo not given) | 18 | 6
O=C(C(c1ccccc1)c1ccccc1)N1CCC2(CC1)SCCN2C(=O)c1ccccc1F | 0 | 6
C=CCOCC(O)CN1CCC(=O)N(C)Cc2cc(OC)ccc21 (stereo not given) | 1 | 13
O=C1NC(=S)NC(=O)C1=C1C=C(c2ccccc2)N(CCN2CCOCC2)C2=C1CCCC2 | 0 | -1
Cc1cc(NC(=O)Cc2ccc(Cl)cc2)n(-c2nc(-c3cccs3)cs2)n1 | -7 | -15
O=C(c1ccc(-c2ccc(Cl)cc2)o1)N1CCCN(C(=O)C2CCCC2)CC1 | -2 | -5
O=C(O)C1(c2ccc(Cl)cc2)CCCC1 | 0 | -2
O=c1c2cnc3nc(-c4cccnc4)nn3c2ccn1CC1CCCO1 (stereo not given) | 6 | 12
C=CCn1c(SC(C(=O)NC(N)=O)C(C)C)nc2sccc2c1=O (stereo not given) | -1 | -4

2 records drawn at random from the list so far, as already listed:
SMILES | NPYLR7 agonist | NPYLR7 agonist max-min
COc1ccc(-n2c(CCCN3CCOCC3)n[nH]c2=O)cc1 | -5 | -7
C=CCOc1ccccc1/C=N\NC(=O)C(C)C | -2 | -1

Given with values under each structure: 20 of the compounds above.
Order of values: NPYLR7 agonist | NPYLR7 agonist max-min
CC1CCN(C(=S)SCC(=O)Nc2ccc(Br)cn2)CC1
 : 15 | 7
O=C(Nc1cccc(Cl)c1)N1CCCC(OCc2cccc(F)c2)C1 (stereo not given)
 : -7 | -6
COc1ccc(CN(CCc2c[nH]c3ccccc23)Cc2nc(C(=O)NCc3ccc(F)cc3)co2)c(OC)c1
 : 17 | 15
COc1ccc(-n2c(CCCN3CCOCC3)n[nH]c2=O)cc1
 : -5 | -7
Cc1c(-n2cccc2)cccc1[N+](=O)[O-]
 : -7 | -10
O=C(O)C12CC3CC(CC(C3)C1)C2
 : -2 | -4
C=CCOc1ccccc1/C=N\NC(=O)C(C)C
 : -2 | -1
COCc1nc(NCCc2csc(C(C)C)n2)c2cnn(C)c2n1
 : 9 | 9
CC(C)c1c(C(=O)O)c(C2CC2)nn1-c1ccc(Cl)c(Cl)c1
 : 9 | 19
COC(=O)c1c2c(n3ccccc13)C(=O)c1ccccc1C2=O
 : -5 | -6
CC1(Cc2ccc(C(F)(F)F)o2)C(=O)Nc2cccc(Cl)c21 (stereo not given)
 : 2 | 1
COC(=O)c1c(NC(=O)C2CCCO2)sc2c1CCC2 (stereo not given)
 : -2 | -4
CSc1nnc(SCc2csc(Cc3ccc(Cl)c(Cl)c3)n2)s1
 : 2 | 0
COc1cccc(CCn2ccnc2-c2ccco2)c1OC
 : 1 | -2
COc1c(C)cc(S(=O)(=O)NCCn2nc(-c3ccc(Cl)cc3)ccc2=O)c(C)c1C
 : 0 | -1
Cc1ccc(CN(C)C(=O)CCNS(=O)(=O)c2cccnc2)o1
 : 7 | 7
Cn1ccnc1C(=O)C1CCCN(C(=O)CC2(c3cccc(F)c3)CC(=O)N(C3CCCC3)C2=O)C1 (stereo not given)
 : 18 | 6
O=C(C(c1ccccc1)c1ccccc1)N1CCC2(CC1)SCCN2C(=O)c1ccccc1F
 : 0 | 6
C=CCOCC(O)CN1CCC(=O)N(C)Cc2cc(OC)ccc21 (stereo not given)
 : 1 | 13
O=C1NC(=S)NC(=O)C1=C1C=C(c2ccccc2)N(CCN2CCOCC2)C2=C1CCCC2
 : 0 | -1

Going on with the list:
SMILES | NPYLR7 agonist | NPYLR7 agonist max-min
CN(C)C(=O)N1CCN(c2cc(-c3ccccc3)c3ccccc3n2)CC1 | 10 | 7
COc1cccc(C(=O)N(Cc2cccc(OS(=O)(=O)c3cccc(C(F)(F)F)c3)c2)Cc2ccco2)c1 | 30 | 30
C#CCNC(=O)CC[C@@H]1CNC(=O)[C@@H]2C[C@H](NS(=O)(=O)c3cccc(C(F)(F)F)c3)CN12 | -3 | -7
C#CCCC(=O)N(CCC)Cc1cccc(Cl)c1 | 8 | 4
CCn1c(CC2CCN(Cc3ccc4nonc4c3)CC2)nn(C)c1=O | 5 | 3
CCc1ccccc1NC(=O)Cn1nnc(C(=O)Nc2ccccc2CC)c1N | -4 | -11
CCN(CC)c1ccc(CN(C(=O)Nc2ccccc2OC)C2CC2)c(OS(=O)(=O)c2ccc(NC(C)=O)cc2)c1 | -11 | -5
CC(C)=CCC/C(C)=C/CN1C[C@@H](Sc2nc3ccccc3[nH]2)C[C@H]1C(=O)N(C)C | 16 | 6
CC1CCN(c2ccc(NC(=O)Nc3ccc(Br)cc3)cc2C(=O)NC(C)c2ccccc2)CC1 (stereo not given) | 7 | 11
OCCn1c(/C=C/c2ccccc2)nc2ccccc21 | 23 | 8
COC(=O)C1CCN(C(=O)COc2cc(C(C)C)c(Cl)cc2C)CC1 | 8 | 1
Cc1ccc(N2C(=O)CSC2c2cccnc2)cc1 (stereo not given) | -13 | -23
OCC1CCCN(c2ncnc3sc4c(c23)CCCC4)C1 (stereo not given) | -6 | -5
O=C(N=Nc1c(O)[nH]c2ccc(Cl)cc12)c1cc(Br)ccc1O | -4 | -4
Cc1c(Cl)c([N+](=O)[O-])nn1CC(=O)NCc1cccs1 | -5 | -10
FC(F)(F)CCc1ccnc(NCC2COc3ccccc3O2)n1 (stereo not given) | 15 | 11
Cc1ccsc1Cn1nccc1N | 2 | -3
Cc1cccc2nc(C(=O)N3CCCC(c4ccn[nH]4)C3)c(F)n12 (stereo not given) | 22 | 8
Cc1ccccc1-c1n[nH]c(=S)n1-c1ccc(Cl)c(Cl)c1 | -2 | 5
Cc1cn2c3c(=O)n(CCN4CCCCC4)c(=O)n(C)c3nc2n1-c1ccc(Cl)cc1 | -1 | -3
CCS(=O)(=O)NCC(c1ccco1)S(=O)(=O)c1ccc(F)cc1 (stereo not given) | -6 | -9
O=C(CC12CC3CC(CC(C3)C1)C2)n1cc(Br)cn1 | 2 | 1
CCOC(=O)c1cnn(-c2ccccc2)c1N | 6 | 5
O=C(NCCCc1ccccc1)N1CCN(C(c2ccc(F)cc2)c2ccc(F)cc2)CC1 | 12 | 13
Cc1nc(SCC(=O)NC(C)c2ccccc2)c2oc3ccccc3c2n1 (stereo not given) | 4 | -1
SMILES | NPYLR7 agonist | NPYLR7 agonist max-min
Cc1[nH]c2ccc(CNC(=O)C(c3cccnc3)N3CCOCC3)cc2c1C (stereo not given) | 3 | 2
CN(CCc1ccccc1)C1CCCN(C(=O)CNS(C)(=O)=O)C1 (stereo not given) | 1 | -2
Cn1cccc1CN(Cc1ccco1)CC(O)COCc1ccccc1 (stereo not given) | 24 | 22
CCOC(=O)N1CCN(CC(=O)N2N=C(c3ccccc3)CC2c2ccc(Cl)cc2)CC1 (stereo not given) | -1 | -2
COC(=O)c1cc2n(n1)CCN(C(=O)c1csc(CN(C)C)n1)C2 | 6 | 4
CC1=NN(C(=O)c2cccc(O)c2)C(O)(C(F)(F)F)C1 (stereo not given) | 38 | 37
COc1ccc(NC(=O)C2CC(=O)N(C)C(=Nc3ccc(C)c(Cl)c3)S2)cc1 (stereo not given) | 1 | -2
CN1CC2(CCCN(CC(=O)Nc3cnn(C)c3)C2)OC1=O (stereo not given) | 9 | 7
Cc1cc(C)n(CC(=O)N2C[C@H]3CC=CC[C@H]3C2)c(=O)n1 | 0 | -7
COc1ccc(CN2CCCn3cccc3C2c2ccc(Cl)cc2)c(OC)c1OC (stereo not given) | 2 | 11
O=C(NC1CCCCC1)N1CCN(Cc2nnnn2-c2ccc(Cl)cc2)CC1 | 3 | 3
Clc1ccc(C(c2ccc(Cl)cc2)N2CCNCC2)cc1 | 5 | 4
CSc1cccc(NC(=O)NCCNc2cc(-n3nc(C)cc3C)ncn2)c1 | -5 | -12
C=CCNCC(=O)N(CCc1ccc(OC)c(OC)c1)Cc1cccs1 | -10 | -16
Fc1ccc(-c2nc(NCc3ccco3)c3ccccc3n2)cc1 | -5 | -3
O=C(c1cc2n(n1)CCN(C(=O)c1cccc(=O)[nH]1)C2)N1CCCC1 | 15 | 7
Fc1ccccc1N1CCN(c2nnnn2-c2ccccc2)CC1 | 3 | 0
COc1cc(S(=O)(=O)NCc2ccc3c(c2)OCO3)ccc1Br | -1 | -6
CC(O)[C@H]1C(=O)N2C1CCOC21CCCCC1 (stereo not given in full) | -3 | -8
Cc1cc(C)n(CCCNC2CCC(C#N)(c3ccccc3)CC2)n1 (stereo not given) | -5 | -3
CN(C)c1ccc(C2=NN(c3ccccc3)C(c3ccccn3)C2)cc1 (stereo not given) | -4 | -10
COC(=O)C(NCc1ccc(S(=O)(=O)N(C)C)s1)c1ccccc1 (stereo not given) | 3 | 2
CC(NC(=O)C(C)(C)C)C(=O)N1CCc2ccccc21 (stereo not given) | 1 | 0
COc1ccc(S(=O)(=O)NC(C)(C)C)cc1N(C)S(C)(=O)=O | 12 | 11
COc1cc(C(=O)OCc2cc(=O)n3cc(Br)ccc3n2)cc2c1OCCO2 | -12 | -13
SMILES | NPYLR7 agonist | NPYLR7 agonist max-min
Cc1sc2nc(C(C)Sc3nnc(C4CC4)n3C3CC3)[nH]c(=O)c2c1C (stereo not given) | 7 | 6
CC(C(=O)NCc1ccccn1)n1c(=O)n(-c2ccccc2F)c(=O)c2ccccc21 (stereo not given) | -4 | 13
Cn1ncc(C(=O)O)c1-c1ccccc1 | -4 | -3
COc1ccc2cc(-c3[nH]ncc3CN3CCN(c4ccc(O)cc4)CC3)ccc2c1 | 1 | -2
CCc1nc2n(n1)C(=O)C(C(c1cccs1)N1CCCC1)S2 (stereo not given) | -5 | 4
Cc1ccc2nc(NC(=O)CSc3nc(=O)n(N4CCN(C)CC4)c4c3CCCC4)sc2c1 | -4 | -12
COc1cc(-c2c(C#N)c(N)nc3c2c(C)nn3-c2ccc(C)c(C)c2)ccc1O | 6 | 2
O=C(CN1CC(C(=O)N2CCOCC2)Oc2ccccc21)Nc1ccc2c(c1)OC1(CCCCC1)O2 (stereo not given) | 2 | 0
COc1ccccc1OC1CN(Cc2cccc(OC)c2O)C1 | 7 | 5
Nc1ncccc1C(=O)OCc1ccc(-c2ccccc2)cc1 | 6 | 5
CC(OC(=O)COc1ccc(Br)cc1Cl)C(N)=O (stereo not given) | -4 | -4
O=C(NCc1ccccn1)C(=O)NCC1OCCCN1S(=O)(=O)c1ccc(F)cc1 (stereo not given) | -3 | 4
COc1cn(CC(=O)Nc2ccc(NC(C)=O)cc2)c(CSc2nnc(C)s2)cc1=O | -3 | -9
Cc1ccccc1Cn1cc(C(=O)N2CCC(C(=O)c3ccccc3)CC2)nn1 | 5 | 0
Fc1ccc(CNC(=S)NCCN2CCCCCC2)cc1 | -2 | -10
CCc1cccc2c(C(CC(=O)NCCOC)c3cccc(OC)c3)c[nH]c12 (stereo not given) | -7 | -8
CCC1CN(C(=O)CN2CCCCc3ccc(OC)cc32)CCO1 (stereo not given) | 2 | -1
COC(=O)c1ccc(C2C3C(=O)CC(c4cccs4)CC3=Nc3ccccc3N2C(=O)C2CC2)cc1 (stereo not given) | 3 | 8
COC(=O)c1scc(-c2ccc(C)cc2)c1S(=O)(=O)N1CCc2ccccc2C1 | 7 | 6
Cc1cn2c3c(=O)n(Cc4cccc(Cl)c4)c(=O)n(C)c3nc2n1CCCl | 1 | 5
CC(C)c1cc(C(=O)N2Cc3cnn(Cc4ccc(F)cc4)c3C2)on1 | 6 | 6
COc1ccc(CN2CCN(c3ccccc3C)C(=O)C2C)cc1 (stereo not given) | -7 | 23
CN(C(=O)CNC1(CCO)CCOCC1)c1ccccc1 | 3 | 1
C=CCNC(=O)NC(=O)CN(CC)c1cc(C)ccc1C | -1 | -3
Cc1nc(N2CCCCCCC2)ncc1C(C)NCc1ccsc1 (stereo not given) | 19 | 6
Fc1ccc(-c2nccc3[nH]nc(-c4cccnc4)c23)cc1Cl | -3 | -1
CC(C)c1ccc2c(c1)CCCN2C(=O)CSC1CCS(=O)(=O)C1 (stereo not given) | 9 | 3
CC(C)N1C(=O)COCc2cc(-c3cnc4ccccc4c3)ccc21 | 8 | 5
O=C(C=C1CCCCC1)N(Cc1ccccc1)CC(O)c1cccs1 (stereo not given) | -14 | -14

The list is partial; the hit share may differ from the screen's.
